T cruzi inh – T. cruzi replication inhibition; T. cruzi beta-gal in NIH3T3, luminescence, 90 h; inhibition, % (no concentration beside the values); actives 1.4% (n = 300,000); AID 1885;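 active = mean inhibition across valid replicates above about 55%, limit read from the data; inconclusive = mean below that limit but half or more replicates reach it; inactive = mean below it, under half of replicates reach it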;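 note: signal also drops with host cell toxicity which is not excluded here; 0% = plate median of DMSO wells and 100% = zero luminescence signal; higher percent means less beta-gal luminescence so fewer parasites; stock transfer was 50 nL into about 50 µL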
Beta cell apopt – beta cell apoptosis inhibition | protection from apoptosis, % (test concentration not listed) | actives 0.8% (n = 300,000) | INS-1E cytokine-induced death, ATP luminescence, 48 h; percent of positive-control rescue, neutral wells zero;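 active = all replicates at 75% or more, or half of them and the mean; inconclusive = half reach 75% but not the mean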;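 note: 0% = cytokine-treated negative control wells and 100% = positive control rescue; higher means more ATP so stronger rescue from cytokine killing; wells of about 40 µL received 100 nL stock; the first replicate is given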
MLL AF4-AF9 inh – inhibitors of human MLL-AF4/AF9 interaction; P42568; AlphaScreen, biotin-AF4 peptide binding to FLAG-AF9; inhibition, % at 10 µM; actives 0.47% (n = 350,000); AID 651704;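 active = every replicate reaching a set inhibition limit, whatever the replicate mean, cut at about 25% in these data; inconclusive = mean inhibition reaches that limit but some replicates miss it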;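 note: 0% = plate neutral control median and 100% = total signal loss; the record names both 10 and 1 µM as test concentration; the first replicate is given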
Target sequence (P42568 whole entry, looked up): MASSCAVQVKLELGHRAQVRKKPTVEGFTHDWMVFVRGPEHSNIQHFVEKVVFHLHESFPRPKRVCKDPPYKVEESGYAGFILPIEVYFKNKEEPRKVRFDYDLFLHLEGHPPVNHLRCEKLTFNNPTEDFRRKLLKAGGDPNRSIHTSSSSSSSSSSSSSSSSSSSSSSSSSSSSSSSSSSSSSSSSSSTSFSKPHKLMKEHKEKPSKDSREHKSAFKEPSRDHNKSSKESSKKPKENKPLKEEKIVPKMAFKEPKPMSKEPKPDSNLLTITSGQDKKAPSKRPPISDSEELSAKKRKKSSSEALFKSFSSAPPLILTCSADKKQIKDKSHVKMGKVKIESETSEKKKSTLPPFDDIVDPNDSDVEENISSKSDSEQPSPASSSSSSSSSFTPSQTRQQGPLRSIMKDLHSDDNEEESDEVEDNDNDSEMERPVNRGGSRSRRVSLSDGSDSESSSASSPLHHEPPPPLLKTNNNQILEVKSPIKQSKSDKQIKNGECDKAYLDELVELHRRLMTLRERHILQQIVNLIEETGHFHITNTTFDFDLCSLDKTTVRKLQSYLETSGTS
ALR H2O2 inh – human ALR oxidase inhibition via reduced H2O2; P55789; purified ALR, DTT oxidation, H2O2 HRP-luminol luminescence; inhibition, % (test concentration not listed); actives 3.8% (n = 290,000); AID 485317;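 active = mean and each replicate at 75% or more; inconclusive = only one of the two met; inactive = neither met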;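 note: stock transfer was 7.5 nL into about 7.5 µL; 0% = neutral wells and 100% = wells with inactivated enzyme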
Target sequence (P55789 whole entry, looked up): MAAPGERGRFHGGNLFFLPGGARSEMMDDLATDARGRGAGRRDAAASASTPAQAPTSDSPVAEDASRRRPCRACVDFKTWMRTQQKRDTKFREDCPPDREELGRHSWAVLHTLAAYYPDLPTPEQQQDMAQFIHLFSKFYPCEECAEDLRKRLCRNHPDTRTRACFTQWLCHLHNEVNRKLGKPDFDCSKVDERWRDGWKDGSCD
RanGTP-Imp inh – disruptors of Ran-importin-beta complex formation – biochemical, FRET, CFP-Ran, YFP-importin-beta, homogeneous, primary screen | AID 2216 | cell-free CFP-Ran/YFP-importin-beta FRET ratio | actives 1.1% (n = 300,000) | inhibition, % (concentration not given with the values);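 active = most replicates above 15%; inconclusive = exactly half above 15%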;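 note: 0% = DMSO wells and 100% = Ran loaded with GDP instead of GTP; wells of about 40 µL received 100 nL stock; the first replicate is given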
FGF22 binding – shifts melting point of recombinant human FGF22 | Q9HCT0 | recombinant FGF22 thermal shift, SYPRO orange fluorescence; percent of sucrose octasulfate shift, DMSO zero | calls only at 9.99 µM | actives 1.5% (n = 340,000);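 active = melting point raised past a set limit in the mean and every replicate; inconclusive = no clear call; three in four hits are not shown here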
Target sequence (Q9HCT0 whole entry, looked up): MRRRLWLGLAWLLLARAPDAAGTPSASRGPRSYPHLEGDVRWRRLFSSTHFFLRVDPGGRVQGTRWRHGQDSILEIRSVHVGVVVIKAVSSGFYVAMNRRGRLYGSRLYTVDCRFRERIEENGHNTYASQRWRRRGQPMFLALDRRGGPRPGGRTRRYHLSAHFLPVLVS
Calb FLC – C. albicans growth modulation with fluconazole; C. albicans CaCi-2 (fluconazole-resistant clinical isolate) + fluconazole, Alamar Blue growth, 48 h; growth inhibition, % (concentration not given with the values); actives 0.57% (n = 300,000); AID 1979;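 active = most replicates above 75%; inconclusive = exactly half above 75%; inactive = most below 75%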;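 note: all wells also contain fluconazole at 8 µg/ml as a sub-toxic cotreatment; 0% = median of DMSO wells and 100% = median of geldanamycin control wells; wells of about 8 µL received 7.5 nL stock; the first replicate is given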
rRNA inh HTS – selective bacterial rRNA inhibition in E. coli; actives 1.6% (n = 350,000); E. coli WT GFP vs humanized-ribosome RFP mutants, fluorescence, 24 h; stronger effect = lower value; DMSO median 0, no signal -100; GFP signal change (wild-type ribosome), % (test concentration not listed); AID 720706;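 active = significant combined selectivity score with lowered wild-type GFP, culture density cut under 30%, mutant RFP and density less affected; inactive = any of these conditions unmet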; note: one replicate is shown; some compounds called inactive have numbers as strong as hits
rRNA inh HTS OD600 – second read-out of rRNA inh HTS, no call of its own (marks repeat the call); OD600 change, %; measured here: OD600 growth;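 optical density of the mix in the first replicate; 0 = DMSO median and -100 = no signal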
rRNA inh HTS RFP – second read-out of rRNA inh HTS, no call of its own (marks repeat the call); RFP signal change, %; measured here: RFP humanized mutant strains;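 first replicate; 0 = DMSO median and -100 = no signal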
* hit, by the source's call; i = inactive; u = inconclusive; x = no result given. This is a subset, so the mix of outcomes need not match the whole.

SMILES	T cruzi inh	Beta cell apopt	MLL AF4-AF9 inh	ALR H2O2 inh	RanGTP-Imp inh	FGF22 binding	Calb FLC	rRNA inh HTS	rRNA inh HTS OD600	rRNA inh HTS RFP
COCCOC(=O)c1c(C)n(C)c2ccc(OC(=O)c3ccccc3OC)cc12	-1	-2	-1.1	-6	2.2	i	-4	-24	-19	-13
Cc1c(N=C2NC(=O)/C(=C/c3cccc([N+](=O)[O-])c3)S2)c(=O)n(-c2ccccc2)n1C	-7	-6	x	-17	-3.3	x	30	x	x	x
COc1cccc(NC(=O)N(C2CCCCC2)C(C)c2cccs2)c1 (stereo not drawn)	-5	5	x	-12	x	x	2	x	x	x
CCCc1nc(Nc2nc3ccccc3o2)nc(C)c1C(=O)OCC	23	28	x	-4	-4.2	x	34	x	x	x
COc1cc(NS(=O)(=O)c2ccc(NC(=S)NC(=O)c3ccco3)cc2)ncn1	-3	-2	-1.5	-4	-1.6	i	3	7	8	1.4
O=C(COc1ccccc1)N1CCCCCCC1	0	4	4.5	6	7.0	i	-1	10	3	4.0
COc1cccc(C(C(=O)NCC2CCCO2)N(C(=O)Cn2nnc3ccccc32)c2ccc(NC(C)=O)cc2)c1 (stereo not drawn)	-2	0	1.7	5	0.4	i	0	2	3	-1.6
COc1ccccc1NC(=O)CC1Nc2ccccc2NC1=O (stereo not drawn)	8	-5	x	60	-2.8	x	12	x	x	x
CC1Oc2ccccc2N(CC(=O)Nc2ccc3c(c2)OCO3)C1=O (stereo not drawn)	2	-4	x	-15	-1.5	x	-3	x	x	x
COc1ccc(CCNC(=O)COC(=O)Cc2cccc3ccccc23)cc1	-13	5	x	0	2.6	x	13	x	x	x
O=S1(=O)CCN(OCc2ccc(Cl)cc2)CC1	3	-3	-0.9	3	-0.3	i	-4	-1	-2	-12
Cc1cc(-c2ccc(C)c(S(=O)(=O)N3CCN(c4ccc([N+](=O)[O-])cc4)CC3)c2)on1	-16	-6	-7.1	-3	-1.6	i	-5	0	14	-0.7
COc1ccc(S(=O)(=O)N2CCCC2CNC(=O)c2cccc(OC)c2)cc1 (stereo not drawn)	-1	2	0.1	-6	-2.2	i	15	-4	-2	1.5
CC(NC(=O)C(=O)N/N=C\c1cccc([N+](=O)[O-])c1)c1ccccc1 (stereo not drawn)	4	7	-2.0	-16	0.0	i	-4	6	4	-1.8
O=S(=O)(NCc1ccc(F)cc1)c1ccc(-n2cnnn2)cc1	-8	x	1.7	11	5.7	i	2	-3	3	-3.0
CCN(CC)C(=O)n1nc(C)c(CN2C(=O)c3ccccc3C2=O)c1C	-10	-3	x	8	0.8	x	-9	-9	-6	-5.0
O=C(N/N=C/C(Br)=C/c1ccccc1)c1cnccn1	-13	-8	1.3	-5	-0.6	x	-6	11	16	-1.0
COc1ccc(S(=O)(=O)N=Nc2c(O)[nH]c3ccccc23)cc1	5	-5	-1.6	-3	-1.7	i	-9	8	5	1.0
CC(Oc1ccc(Cl)cc1)C(=O)N1CCN(C(=O)c2ccco2)CC1 (stereo not drawn)	x	-4	-0.2	-6	x	i	x	2	3	-3.8
CCCCSc1nc(O)c(C2OC(=O)c3c2ccc(OC)c3OC)c(=O)n1C (stereo not drawn)	-8	x	x	u	0.3	x	-12	x	x	x

Next section (two carried over from the part before).
SMILES	T cruzi inh	Beta cell apopt	MLL AF4-AF9 inh	ALR H2O2 inh	RanGTP-Imp inh	FGF22 binding	Calb FLC	rRNA inh HTS	rRNA inh HTS OD600	rRNA inh HTS RFP
CC(Oc1ccc(Cl)cc1)C(=O)N1CCN(C(=O)c2ccco2)CC1 (stereo not drawn)	x	-4	-0.2	-6	x	i	x	2	3	-3.8
CCCCSc1nc(O)c(C2OC(=O)c3c2ccc(OC)c3OC)c(=O)n1C (stereo not drawn)	-8	x	x	u	0.3	x	-12	x	x	x
O=C(c1ccc(COc2ccc(F)cc2)o1)n1cccn1	-5	1	x	-15	-4.9	x	21	x	x	x
CC(C)(CNc1ccc([N+](=O)[O-])cc1C#N)N1CCOCC1	5	1	2.3	-4	-1.9	i	11	14	11	2.1
CN(C)/C=C1\N=C(c2cccnc2Oc2ccc(Cl)cc2)OC1=O	5	1	3.3	-5	-0.6	i	-1	x	x	x
COc1cccc(CNC(=O)c2csc3c2CCCC3)c1	-1	x	2.5	22	0.9	i	9	-14	-29	0.2
CC(C)(C)n1nc2c(c1NC(=O)Cc1cccc3ccccc13)CS(=O)C2 (stereo not drawn)	1	-8	0.0	0	u	i	-6	4	-7	-5.0
O=C(CN1C(=O)NC(Cc2ccccc2)C1=O)Nc1ccc(OC(F)F)cc1 (stereo not drawn)	-8	-4	2.9	-3	1.8	i	1	6	12	-1.1
CC(CN)(NS(=O)(=O)c1ccccc1)c1ccccc1 (stereo not drawn)	-6	-6	-1.6	-1	2.1	i	19	11	9	3.0
CSc1ncccc1C(=O)OCCCC(=O)c1ccc(F)cc1	x	-3	-0.2	-6	x	i	x	x	x	x
CCC(C)NC(=O)NC(=O)CSc1nnc(-c2ccccc2F)n1C1CC1 (stereo not drawn)	2	-6	-0.2	0	-6.9	i	-1	1	5	3.3
COc1cccc(-c2nc(-c3ccncc3)no2)c1	-1	-4	-0.6	-2	2.0	i	-13	0	-6	-4.7
Nn1c(SCC(=O)N2CCCCCC2)nnc1-c1ccncc1	-11	1	2.7	-5	3.9	i	-3	9	3	1.9
O=C(OC(C(=O)NC1CCCCC1)c1ccc(C(F)(F)F)cc1)c1ccco1 (stereo not drawn)	9	-4	-0.9	x	u	i	9	17	20	2.8
COc1ccc(NC(=O)c2nnn(CC(=O)Nc3ccccc3OC)c2N)c(OC)c1	1	-2	-3.5	0	-0.6	i	-7	2	-3	-1.7
O=C(Nc1ccccc1Br)C(=O)N1CCCC1	-20	2	x	-3	-1.7	x	-11	x	x	x
COCc1cc(C)nc(OCC(=O)N/N=C/c2cc(C)n(-c3c(C)cccc3C)c2C)c1C#N	-8	2	x	-13	4.2	x	0	x	x	x
Cc1ccc(C(=O)NCCc2nnc3ccc(NCCCN4CCOCC4)nn23)cc1	-2	-1	1.2	5	1.2	i	2	3	6	0.6
Cc1ccc(N=Cc2c(O)n(-c3nccs3)c(=O)c3ccccc23)c(C)c1	7	0	x	8	5.2	x	-13	x	x	x
CN(C(=O)CSc1ncnc2sc3c(c12)CCCC3)C1CCS(=O)(=O)C1 (stereo not drawn)	x	-2	0.2	-3	x	i	x	-18	-29	-2.7
O=C(NCc1ccccn1)c1ccc(OC2CCN(Cc3ccc(F)cc3F)CC2)cc1	5	-3	2.3	-5	-2.0	i	-17	-7	-10	-9.7
COc1cc(C(F)(F)F)c(C(=O)N(C)Cc2cccc(Cl)c2)cn1	-14	-9	2.6	-3	-0.1	i	22	-23	-24	-2.6
Cc1nc2ccccn2c1-c1csc(Nc2cccc(O)c2)n1	5	x	5.2	x	-1.6	i	23	-19	-1	1.2
COc1cccc(NC(=S)N(CCN2CCCCC2)Cc2ccco2)c1	-2	-6	5.3	x	-4.4	i	3	-4	-1	-2.5
O=C1c2ccsc2SCCN1Cc1ccc(Cl)cc1	12	x	x	-9	0.1	x	-9	x	x	x
COc1ccc(S(=O)(=O)N2CCc3ccccc3C2)cc1OC	-10	-7	-5.7	-8	2.1	i	11	-3	-5	5.3
CCCc1cc(NCC2CCCO2)n2c(nc3ccccc32)c1C#N (stereo not drawn)	29	-8	x	17	52*	x	5	x	x	x
O=C(N/N=C/c1ccc(O)cc1)c1cc(C23CC4CC(CC(C4)C2)C3)[nH]n1	36	1	0.4	91*	8.1	i	10	-32*	-0.5*	7.9*
CCOC(=O)c1cn(Cc2ccccc2)nc1-c1ccccc1	x	-2	x	-1	u	i	-2	-18	-16	-2.4
COc1ccc([C@H]2/C=C\CN(S(=O)(=O)c3cccc4cccnc34)[C@@H](C)C(=O)N2Cc2ccc(F)cc2)cc1	40	14	x	-1	2.7	i	17	10	4	1.2
Cc1c(C#N)sc2nc(-c3ccccc3)nc(N3CCCC3)c12	-5	-6	x	2	0.1	x	-15	x	x	x
COc1ccc(OC)c(NC(=O)NCCc2cccc(Cl)c2)c1	19	-1	-1.5	-9	-1.1	i	0	10	5	2.4

Among those listed so far, 9 contain fluorine:
SMILES	T cruzi inh	Beta cell apopt	MLL AF4-AF9 inh	ALR H2O2 inh	RanGTP-Imp inh	FGF22 binding	Calb FLC	rRNA inh HTS	rRNA inh HTS OD600	rRNA inh HTS RFP
O=S(=O)(NCc1ccc(F)cc1)c1ccc(-n2cnnn2)cc1	-8	x	1.7	11	5.7	i	2	-3	3	-3.0
O=C(c1ccc(COc2ccc(F)cc2)o1)n1cccn1	-5	1	x	-15	-4.9	x	21	x	x	x
O=C(CN1C(=O)NC(Cc2ccccc2)C1=O)Nc1ccc(OC(F)F)cc1 (stereo not drawn)	-8	-4	2.9	-3	1.8	i	1	6	12	-1.1
CSc1ncccc1C(=O)OCCCC(=O)c1ccc(F)cc1	x	-3	-0.2	-6	x	i	x	x	x	x
CCC(C)NC(=O)NC(=O)CSc1nnc(-c2ccccc2F)n1C1CC1 (stereo not drawn)	2	-6	-0.2	0	-6.9	i	-1	1	5	3.3
O=C(OC(C(=O)NC1CCCCC1)c1ccc(C(F)(F)F)cc1)c1ccco1 (stereo not drawn)	9	-4	-0.9	x	u	i	9	17	20	2.8
O=C(NCc1ccccn1)c1ccc(OC2CCN(Cc3ccc(F)cc3F)CC2)cc1	5	-3	2.3	-5	-2.0	i	-17	-7	-10	-9.7
COc1cc(C(F)(F)F)c(C(=O)N(C)Cc2cccc(Cl)c2)cn1	-14	-9	2.6	-3	-0.1	i	22	-23	-24	-2.6
COc1ccc([C@H]2/C=C\CN(S(=O)(=O)c3cccc4cccnc34)[C@@H](C)C(=O)N2Cc2ccc(F)cc2)cc1	40	14	x	-1	2.7	i	17	10	4	1.2

Bioassay records (PubChem BioAssay)
